Vaccinia inh: blocks a specific stage of Vaccinia orthopoxvirus infection. Vaccinia-infected cells, mCherry/Venus stage reporter fluorescence; stronger effect = lower value; some inactives read as strong as hits. activity change (mCherry), % (test concentration not listed). hit rate 0.01% among 89,000. AID 1053133;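 active means mCherry past -33% and 40 or more points under the early reporter, replicates agreeing; inconclusive means past -33% without that gap or agreement; tested in A549 cells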;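 further: scaled between vehicle wells and reference inhibitor wells; 23 nL library stock went into each well; one replicate is shown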
Vaccinia inh Venus: recorded beside Vaccinia inh, whose call it bears; activity change (Venus), %; measured here: Venus reporter, other viral stage;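 negative = less Venus signal; first of two replicates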
An asterisk follows results filed as active; u = inconclusive; x = no result given.

mol	Vaccinia inh	Vaccinia inh Venus
COC(=O)C[C@H]1CC[C@H]2[C@H](COc3ccc(NC(=O)Nc4cccc(C)c4)cc3C(=O)N2C)O1	-16.8	-13.2
OC[C@H]1[C@H](c2ccc(-c3ccc(F)cc3)cc2)[C@H]2CN(Cc3cccnc3)CCCCN21	-17.3	-14.3
Cc1ccc(S(=O)(=O)N(C)C[C@H]2Oc3c(NS(C)(=O)=O)cccc3C(=O)N([C@@H](C)CO)C[C@@H]2C)cc1	-1.1	-2.7
N#Cc1cccc(-c2ccc(C3[C@H]4CNC[C@@H]3N4Cc3cncnc3)cc2)c1 (stereo partly specified)	-2.9	-3.7
CC=Cc1ccc2n(c1=O)C[C@H]1[C@H](CO)[C@@H](C(=O)NC3CCCC3)[C@@H]2N1C(=O)c1cnccn1 (mixture of isomers)	15.3	4.3
C/C=C/c1ccc([C@H]2[C@H](CO)N3C(=O)CN(S(=O)(=O)c4cccc(F)c4)C[C@@H]23)cc1	9.0	0.7
COC(=O)[C@H]1[C@H](CO)[C@H]2Cn3c(ccc(/C=C/c4ccccc4)c3=O)[C@@H]1N2C(=O)C1CCC1	11.0	5.2
CCCN1[C@@H]2Cn3c(ccc(-c4ccccc4)c3=O)[C@H]1[C@@H](C(=O)NCCc1cn(C)cn1)[C@@H]2CO	3.0	7.7
Cc1ccccc1-c1cnc2c(c1)C(=O)N([C@H](C)CO)C[C@@H](C)[C@@H](CN(C)C(=O)c1ccncc1)O2	-1.0	4.1
O=C(CCN1CCCCC1)N[C@H]1CC[C@@H](CCn2cc(-c3ccc(F)cc3)nn2)O[C@@H]1CO	-0.4	-4.3
C[C@@H]1CN([C@@H](C)CO)C(=O)c2cc(NS(C)(=O)=O)ccc2O[C@H]1CN(C)C(=O)NC1CCCCC1	12.4	6.7
C[C@H](CO)N1C[C@H](C)[C@@H](CN(C)S(C)(=O)=O)Oc2ncc(C#CC3CCCC3)cc2C1=O	7.6	6.0
C[C@H]1CN([C@@H](C)CO)C(=O)CCCn2cc(nn2)CO[C@H]1CN(C)C(=O)Nc1ccc2c(c1)OCCO2	10.9	9.7
Cc1ccc(S(=O)(=O)Nc2ccc3c(c2)C(=O)N([C@H](C)CO)C[C@H](C)[C@H](CN(C)C(=O)c2ccccc2)OCCCC[C@H](C)O3)cc1	-25.6	-17.8
CCC(=O)N(C)C[C@H]1Oc2ncc(C#CCc3ccccc3)cc2C(=O)N([C@@H](C)CO)C[C@H]1C	1.0	4.1
C[C@H]1CCCCO[C@H](CN(C)CC2CCCCC2)[C@@H](C)CN([C@@H](C)CO)C(=O)c2cc(NS(C)(=O)=O)ccc2O1	-9.9	2.7
CCc1cnc(N2[C@@H](C#N)[C@@H](c3ccc(C#CC(C)C)cc3)[C@@H]2CO)s1	-29.8	-22.0
C[C@@H]1CN([C@@H](C)CO)C(=O)c2cccc(NC(=O)c3nc4ccccc4s3)c2O[C@@H]1CN(C)C(=O)Nc1ccc(F)cc1	-21.0	-20.3
Cc1noc(C)c1S(=O)(=O)Nc1ccc2c(c1)CC(=O)N([C@@H](C)CO)C[C@H](C)[C@@H](CN(C)S(=O)(=O)c1ccc(F)cc1)O2	6.5	-0.5
C[C@H](CO)N1C[C@H](C)[C@@H](CN(C)C(=O)CN(C)C)Oc2cc(-c3cccnc3)ccc2S1(=O)=O	17.7	3.5
O=C(C[C@@H]1CC[C@H]2[C@@H](COC[C@H](O)CN2S(=O)(=O)c2ccccc2Cl)O1)NCc1ccccc1Cl	14.4	7.5
COc1ccc(NC(=O)Nc2ccc3c(c2)C(=O)N([C@H](C)CO)C[C@@H](C)[C@H](CN(C)S(=O)(=O)c2ccccc2)O3)cc1	9.6	-7.4
C[C@@H]1CN([C@H](C)CO)C(=O)c2cccc(NC(=O)C3CCOCC3)c2O[C@@H]1CN(C)CC1CCCCC1	-1.2	-2.6
CC(=O)N1CC2(C1)[C@H](c1ccc(-c3ccc(F)cc3)cc1)[C@@H](CO)N2CC1CC1	6.8	6.7
CC(=O)N1CC(=O)N2[C@H](CO)[C@@H](c3ccc(-c4ccc(C(=O)N(C)C)cc4)cc3)[C@H]2C1	12.9	6.0
COc1ccc(NC(=O)Nc2ccc3c(c2)C(=O)N([C@H](C)CO)C[C@H](C)[C@@H](CN(C)C)OCCCC[C@H](C)O3)cc1	1.0	-1.2
COc1ccc(-c2ccccc2[C@H]2[C@@H](CO)N(C(=O)C3CCCCC3)[C@H]2C#N)cc1	-11.2	-7.0
N#C[C@@H]1[C@H](c2ccccc2C2=CCCCC2)[C@H](CO)N1S(=O)(=O)c1ccccc1	16.0	7.4
C[C@@H]1CCCCO[C@@H](CN(C)Cc2ccncc2)[C@@H](C)CN([C@@H](C)CO)C(=O)c2cc(NS(=O)(=O)c3ccc(Cl)cc3)ccc2O1	-15.2	-10.3
COc1ccccc1C#Cc1ccc2c(c1)O[C@H](CN(C)Cc1ccncc1)[C@@H](C)CN([C@H](C)CO)S2(=O)=O	-32.8	-17.9

Copied from the list:
CCc1cnc(N2[C@@H](C#N)[C@@H](c3ccc(C#CC(C)C)cc3)[C@@H]2CO)s1 in Vaccinia inh Venus: -22.0
C[C@H](CO)N1C[C@H](C)[C@@H](CN(C)S(C)(=O)=O)Oc2ncc(C#CC3CCCC3)cc2C1=O in Vaccinia inh: 7.6
COc1ccc(-c2ccccc2[C@H]2[C@@H](CO)N(C(=O)C3CCCCC3)[C@H]2C#N)cc1 in Vaccinia inh Venus: -7.0
Cc1ccc(S(=O)(=O)N(C)C[C@H]2Oc3c(NS(C)(=O)=O)cccc3C(=O)N([C@@H](C)CO)C[C@@H]2C)cc1 in Vaccinia inh Venus: -2.7

2 entries from above, with values under each structure:
Below each compound: Vaccinia inh | Vaccinia inh Venus
- CCc1cnc(N2[C@@H](C#N)[C@@H](c3ccc(C#CC(C)C)cc3)[C@@H]2CO)s1
  -29.8 | -22.0
- C[C@@H]1CN([C@@H](C)CO)C(=O)c2cccc(NC(=O)c3nc4ccccc4s3)c2O[C@@H]1CN(C)C(=O)Nc1ccc(F)cc1
  -21.0 | -20.3

(more compounds)
mol	Vaccinia inh	Vaccinia inh Venus
CCCC#Cc1ccc(CC[C@H]2O[C@H]3CC[C@H](CO)O[C@H]3C[C@@H]2n2cc(C(C)(C)O)nn2)cc1	-16.9	3.9
C[C@H]1CN([C@@H](C)CO)S(=O)(=O)c2ccc(-c3cncnc3)cc2O[C@@H]1CN(C)Cc1cncnc1	2.3	0.5
C[C@@H]1CN([C@H](C)CO)C(=O)c2cc(NC(=O)C3CC3)ccc2O[C@H]1CN(C)C(=O)NC1CCCCC1	7.6	7.2
CCCNC(=O)C[C@H]1CC[C@H]2[C@@H](COC[C@@H](O)CN2C(=O)c2ccccn2)O1	20.3	3.2
C[C@H](CO)N1C[C@H](C)[C@@H](CN(C)C)Oc2ccc(NS(C)(=O)=O)cc2CC1=O	10.7	5.3
O=C(N[C@@H]1CC[C@@H](CCNC(=O)C2CCCCC2)O[C@@H]1CO)c1ccccn1	-1.8	9.3
COc1ccc(CN(C)C[C@@H]2Oc3ccc(NC(=O)Nc4ccc(OC)cc4)cc3C(=O)N([C@@H](C)CO)C[C@H]2C)cc1	-7.4	0.7
C[C@H](NC(=O)C[C@@H]1CC[C@@H](NC(=O)c2cccnc2)[C@@H](CO)O1)c1ccccc1	5.1	5.1
Cc1noc(C)c1NC(=O)N[C@@H]1CC[C@@H](CC(=O)Nc2ccccc2)O[C@@H]1CO	15.3	14.9
C[C@@H]1CCCCO[C@H](CN(C)S(=O)(=O)c2cccs2)[C@@H](C)CN([C@@H](C)CO)C(=O)c2cc(NC(=O)C3CCCCC3)ccc2O1	-6.1	-18.4
C/C=C/c1ccc2c(c1)O[C@H](CN(C)C(=O)Cc1ccccn1)[C@@H](C)CN([C@@H](C)CO)S2(=O)=O	-0.2	-5.9
COc1ccccc1-c1ccc([C@H]2[C@@H](C#N)N(C(=O)CN(C)C)[C@@H]2CO)cc1	11.8	1.1
CO[C@@H]1CN(C)C(=O)c2ccc(NS(C)(=O)=O)cc2OC[C@H](C)NC[C@@H]1C	-6.0	-0.7
COc1ccc(NC(=O)N(C)C[C@@H]2Oc3ccc(NS(=O)(=O)c4cn(C)cn4)cc3C(=O)N([C@@H](C)CO)C[C@H]2C)cc1	5.4	3.7
COc1ccccc1C(=O)N1C[C@H]2[C@@H](c3ccccc31)[C@H](CO)N2C(=O)Cc1ccccc1	5.4	5.7
CO[C@H]1CN(C)C(=O)c2cc(NC(=O)C3CC3)ccc2OC[C@@H](C)N(Cc2ccncc2)C[C@@H]1C	-8.4	-2.4
CC(=O)N(C)C[C@H]1Oc2ncc(C#C[C@H](C)O)cc2C(=O)N([C@H](C)CO)C[C@@H]1C	33.3	11.5
C[C@@H]1CN([C@H](C)CO)C(=O)c2cc(C#CC3CCCC3)cnc2O[C@H]1CN(C)C(=O)C1CC1	-0.3	-1.3
O=C(Nc1ccccc1F)N1CC(=O)N2[C@@H](CO)[C@@H](c3ccc(C#CC4CC4)cc3)[C@@H]2C1	-6.1	-7.8
CO[C@H]1CN(C)C(=O)c2cc(NC(=O)C3CCC3)ccc2OC[C@H](C)N(Cc2cccnc2)C[C@@H]1C	4.7	9.9
C[C@H](CO)N1C[C@H](C)[C@@H](CN(C)CC2CCOCC2)Oc2ncc(C#CCc3ccccc3)cc2C1=O	-10.5	-1.5
C[C@@H]1CN([C@@H](C)CO)C(=O)c2cc(C#Cc3cccnc3)cnc2O[C@@H]1CN(C)Cc1cccnc1	32.2	13.9
CC(C)NC(=O)N[C@@H]1CC[C@H](CCNC(=O)C2CCOCC2)O[C@@H]1CO	10.4	8.1
COc1ccc(S(=O)(=O)N(C)C[C@H]2Oc3ccc(N(C)C)cc3CC(=O)N([C@H](C)CO)C[C@@H]2C)cc1	-11.2	-3.9
O=C(C[C@@H]1CC[C@@H]2[C@H](COC[C@H](O)CN2C(=O)Nc2cccc(Cl)c2)O1)NCCCN1CCOCC1	10.0	5.1
CC(C)NC(=O)N(C)C[C@@H]1Oc2cc(C3=CCCC3)ccc2S(=O)(=O)N([C@H](C)CO)C[C@@H]1C	0.8	8.2
CN(C)C(=O)C[C@@H]1CC[C@H](NC(=O)C2CC2)[C@@H](CO)O1	-2.3	1.6
C[C@@H]1CN([C@@H](C)CO)C(=O)c2cc(NC(=O)C3CC3)ccc2O[C@@H]1CN(C)S(=O)(=O)c1ccc(F)cc1	-8.2	-3.2
COc1ccc(S(=O)(=O)Nc2ccc3c(c2)CC(=O)N([C@H](C)CO)C[C@H](C)[C@@H](CN(C)S(=O)(=O)c2c(C)noc2C)O3)cc1	15.6	7.6
C[C@H](CO)N1C[C@H](C)[C@@H](CN(C)Cc2ccncc2)OCCCC[C@H](C)Oc2ccc(NS(=O)(=O)c3ccccc3)cc2C1=O	12.0	9.7
CC(C)NC(=O)N(C)C[C@H]1OCCCC[C@@H](C)Oc2ccc(NS(C)(=O)=O)cc2C(=O)N([C@H](C)CO)C[C@H]1C	22.7	13.5
CC=Cc1ccc2n(c1=O)C[C@@H]1[C@@H](CO)[C@H](C(=O)N3CCCCC3)[C@H]2N1CC1CCCC1 (mixture of isomers)	12.1	12.9
CCNC(=O)Nc1ccc2c(c1)C(=O)N(C)[C@@H]1CC[C@H](CC(=O)NCC3CCCCC3)O[C@@H]1CO2	8.6	4.5
N#C[C@H]1[C@H](c2ccc(-c3ccccc3)cc2)[C@H](CO)N1C(=O)Cc1ccncc1	-20.1	-12.4
COc1ccc(CN(C)C[C@H]2Oc3ccc(NS(=O)(=O)c4ccc(Cl)cc4)cc3C(=O)N([C@@H](C)CO)C[C@@H]2C)cc1	2.0	-1.1
CO[C@@H]1CC[C@@H]2CCN(C)C(=O)C[C@H](c3ccccc3)CN(C)C(=O)c3cccc(C#N)c3OC[C@@H]1O2	21.8	9.7
CO[C@H]1CN(C)C(=O)c2ccc(NS(=O)(=O)CC(F)(F)F)cc2OC[C@H](C)N(C)C[C@@H]1C	19.2	13.7
O=C(c1ccc(F)cc1)N1CC2(C1)[C@H](c1ccccc1)[C@@H](CO)N2Cc1ccccn1	10.5	0.9
C[C@H](CO)N1C[C@H](C)[C@H](CN(C)S(=O)(=O)c2cccs2)Oc2ccc(NC(=O)c3ccncc3)cc2CC1=O	6.9	6.9
CC(C)c1cn(CC[C@@H]2CC[C@H](NS(=O)(=O)c3ccc(F)cc3)[C@@H](CO)O2)nn1	6.3	14.1
N#Cc1ccc(-c2ccc([C@H]3[C@H](CO)N4C(=O)CNC[C@@H]34)cc2)cc1	23.2	24.2
Cc1ccc(S(=O)(=O)Nc2ccc3c(c2)C(=O)N([C@H](C)CO)C[C@@H](C)[C@H](CN(C)Cc2ccc(Cl)c(Cl)c2)O3)cc1	-28.9	-21.5
COc1ccc2c3c([nH]c2c1)[C@H](CO)N(C(=O)NC(C)C)CC31CCN(Cc2ccc(F)cc2)CC1	u	x
O=C(Nc1ccc2c(c1)OCO2)N[C@@H]1CC[C@H](CCNC(=O)C2CCCCC2)O[C@H]1CO	12.9	6.8
COc1ccccc1-c1ccc2n(c1=O)C[C@H]1[C@H](CO)[C@@H](C(=O)NCCCN(C)C)N(C(C)=O)[C@@H]21	18.3	14.0
C[C@H](CO)N1C[C@H](C)[C@@H](CN(C)Cc2ccc3c(c2)OCCO3)OCc2cnnn2CCCC1=O	-3.1	1.1
C[C@@H]1CN([C@@H](C)CO)C(=O)c2cc(NC(=O)Nc3ccc4c(c3)OCO4)ccc2O[C@@H]1CN(C)S(=O)(=O)c1ccc(Cl)cc1	-18.2	-15.0
C[C@H]1CCCCO[C@@H](CN(C)S(=O)(=O)c2ccccc2)[C@@H](C)CN([C@@H](C)CO)C(=O)c2cc(NC(=O)CCC(F)(F)F)ccc2O1	u	x
C[C@H](CO)N1C[C@H](C)[C@H](CN(C)Cc2ccc(C(=O)O)cc2)Oc2c(NC(=O)c3ccc(-c4nccs4)cc3)cccc2C1=O	19.8	9.5
CCCNC(=O)N(C)C[C@@H]1Oc2cc(C#CCOC)ccc2S(=O)(=O)N([C@@H](C)CO)C[C@@H]1C	7.6	10.6

Bioassay records (PubChem BioAssay)

An excerpt (hit frequency here may not be typical).
